T cruzi repl – blocks replication of Trypanosoma cruzi; T. cruzi beta-gal in NIH3T3, luminescence, 90 h; 300,000 compounds, 1.4% hits; AID 1885; inhibition, % (concentration not given with the values);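 active means mean inhibition across valid replicates above about 55%, limit read from the data; inconclusive means mean below that limit but half or more replicates reach it; inactive means mean below it, under half of replicates reach it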;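 further: signal also drops with host cell toxicity which is not excluded here; 0% = plate median of DMSO wells and 100% = zero luminescence signal; higher percent means less beta-gal luminescence so fewer parasites; stock transfer was 50 nL into about 50 µL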
Vif A3G – HIV-1 Vif–A3G interaction blockers – biochemical, TR-FRET, GST-Vif 1-94, biotin-A3G peptide, dose response retest, primary screen (AID 1117319); TR-FRET GST-Vif / biotin-A3G peptide binding; higher % means a stronger effect; test concentration not given here; strong numbers were not always called active; inhibition, %; hits with a dose series show IC50 in µM; 260,000 compounds, 0.57% hits;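 active means above the screen mean plus three standard deviations and confirmed in dose response; inconclusive means results disagree or hit not tested in dose response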;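 further: Vif residues 1-94 fused to GST binding biotinylated APOBEC3G peptide 110-148; 0% = full assay without inhibitor and 100% = GST in place of GST-Vif; retest series ran down from 100 µM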
LANA-H2A inh – blocks KSHV LANA binding to histone H2A/H2B. Q9QR71. inhibition, % (test concentration not listed). 320,000 compounds, 0.6% hits. AID 2629. cell-free LANA-H2A/H2B peptide, fluorescence polarization; in the data active means inhibition mostly above about 10%, no sharp cut-off; inactive means mostly below about 6.7%;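 further: stock transfer was 7.5 nL into about 10 µL; 0% = median of vehicle wells and 100% = median of positive control wells; one replicate is shown; the record names a cut of 25% in any replicate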
Target sequence (Q9QR71 whole entry, looked up): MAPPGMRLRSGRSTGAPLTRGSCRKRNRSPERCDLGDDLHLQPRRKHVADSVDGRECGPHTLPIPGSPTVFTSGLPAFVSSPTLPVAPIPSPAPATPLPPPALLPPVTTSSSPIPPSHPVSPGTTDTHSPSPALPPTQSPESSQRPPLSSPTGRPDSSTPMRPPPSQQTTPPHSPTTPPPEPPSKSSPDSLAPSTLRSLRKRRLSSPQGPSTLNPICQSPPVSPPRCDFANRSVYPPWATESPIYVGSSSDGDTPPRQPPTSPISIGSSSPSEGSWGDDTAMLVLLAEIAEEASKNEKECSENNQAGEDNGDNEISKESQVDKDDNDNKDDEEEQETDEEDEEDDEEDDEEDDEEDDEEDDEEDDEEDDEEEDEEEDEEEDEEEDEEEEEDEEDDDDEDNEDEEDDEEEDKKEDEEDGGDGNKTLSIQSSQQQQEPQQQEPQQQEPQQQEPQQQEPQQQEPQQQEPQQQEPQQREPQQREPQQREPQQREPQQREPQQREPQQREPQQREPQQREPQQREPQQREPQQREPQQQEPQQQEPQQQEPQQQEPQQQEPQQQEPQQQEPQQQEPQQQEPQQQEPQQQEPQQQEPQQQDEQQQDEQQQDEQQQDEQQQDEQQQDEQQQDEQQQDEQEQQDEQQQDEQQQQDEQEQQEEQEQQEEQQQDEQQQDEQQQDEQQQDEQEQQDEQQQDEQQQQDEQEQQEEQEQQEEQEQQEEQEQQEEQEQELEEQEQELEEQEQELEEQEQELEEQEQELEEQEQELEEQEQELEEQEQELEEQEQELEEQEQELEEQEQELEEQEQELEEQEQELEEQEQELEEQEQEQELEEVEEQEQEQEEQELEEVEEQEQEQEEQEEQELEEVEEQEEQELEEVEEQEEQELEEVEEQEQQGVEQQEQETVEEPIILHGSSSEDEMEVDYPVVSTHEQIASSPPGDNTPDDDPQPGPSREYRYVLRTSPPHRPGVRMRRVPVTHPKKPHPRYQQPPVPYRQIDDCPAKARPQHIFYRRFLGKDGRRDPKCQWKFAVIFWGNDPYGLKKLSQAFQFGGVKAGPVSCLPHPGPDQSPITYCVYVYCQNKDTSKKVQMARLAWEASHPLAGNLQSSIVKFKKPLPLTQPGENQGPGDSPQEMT
Bfl-1 A1 inh – inhibitors of the anti-apoptotic protein A1, read as caspase activation; 330,000 compounds, 0.066% hits; MEF A1-2A-BIM cells, Caspase-Glo 3/7 luminescence, 3 h; percent of clofoctol response, vehicle zero; caspase activation, % (test concentration not listed);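 active means over half of replicate activation scores above 10%, or exactly half above 10 with the replicate mean above 10; inconclusive means replicate mean below 10 yet half the replicates above 10; inactive means over half of replicates below 10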;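 further: wells of about 30 µL received 50 nL stock; many hits fall short of the cut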
Calb FLC – affects C. albicans growth with fluconazole. AID 1979. growth inhibition, % (concentration not given with the values). 300,000 compounds, 0.57% hits. C. albicans CaCi-2 (fluconazole-resistant clinical isolate) + fluconazole, Alamar Blue growth, 48 h;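 active means most replicates above 75%; inconclusive means exactly half above 75%; inactive means most below 75%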;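 further: all wells also contain fluconazole at 8 µg/ml as a sub-toxic cotreatment; 0% = median of DMSO wells and 100% = median of geldanamycin control wells; wells of about 8 µL received 7.5 nL stock; the first replicate is given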
MLL AF4-AF9 inh – MLL-AF4/AF9 protein interaction inhibition; P42568; AlphaScreen, biotin-AF4 peptide binding to FLAG-AF9; inhibition, % at 10 µM; 350,000 compounds, 0.47% hits; AID 651704;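 active means every replicate reaching a set inhibition limit, whatever the replicate mean, cut at about 25% in these data; inconclusive means mean inhibition reaches that limit but some replicates miss it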;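 further: 0% = plate neutral control median and 100% = total signal loss; the record names both 10 and 1 µM as test concentration; the first replicate is given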
RanGTP-Impb inh – inhibitors of RanGTP-importin-beta interaction, primary screen, biochemical, FRET, CFP-Ran, YFP-importin-beta, homogeneous; 300,000 compounds, 1.1% hits; inhibition, % (concentration not given with the values); cell-free CFP-Ran/YFP-importin-beta FRET ratio; AID 2216;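 active means most replicates above 15%; inconclusive means exactly half above 15%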;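 further: 0% = DMSO wells and 100% = Ran loaded with GDP instead of GTP; wells of about 40 µL received 100 nL stock; the first replicate is given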
Beta apoptosis – blocks beta cell apoptosis; INS-1E cytokine-induced death, ATP luminescence, 48 h; percent of positive-control rescue, neutral wells zero; protection from apoptosis, % (concentration not given with the values); 300,000 compounds, 0.8% hits;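 active means all replicates at 75% or more, or half of them and the mean; inconclusive means half reach 75% but not the mean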;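 further: 0% = cytokine-treated negative control wells and 100% = positive control rescue; higher means more ATP so stronger rescue from cytokine killing; wells of about 40 µL received 100 nL stock; the first replicate is given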
An asterisk follows results filed as active; ? = inconclusive; . = no result given; & = joins results of further samples; ! = not active in a repeat. An unsorted share of the library. Share with any hit: about 4.3%.

SMILES	T cruzi repl	Vif A3G	LANA-H2A inh	Bfl-1 A1 inh	Calb FLC	MLL AF4-AF9 inh	RanGTP-Impb inh	Beta apoptosis
N#CCSc1nc2c(c(=O)n1Cc1ccccc1)C1(CCCC1)Cc1ccccc1-2	26	-1%	1.9	0.2	2	.	-0.8	8
CCOc1cc(/C=C2/C(=N)N3C=CSC3=NC2=O)ccc1OCCCOc1ccccc1C	19	-7%	-1.7	41*	-1	4.3	2.5	.
COc1ccc(C(=O)COC(=O)CCCN=C2NS(=O)(=O)c3ccccc32)c(OC)c1	-4	2%	.	0.0	3	-15	8.7	1
O=C(COC(=O)c1cccnc1Cl)c1ccc(OC(F)F)cc1	-7	3%	1.1	0.6	-18	-2.6	0.0	-4
CS(=O)(=O)N1CCc2cc(C(=O)NC3CC3)ccc21	-24	-7%	-4.2	-0.8	-4	-0.7	-1.0	-3
COc1cccc(C(=O)NCC(=O)N2CCC(C)CC2)c1	-2	-1%	1.1	-1.4	-3	.	3.4	-4
Cc1ccc(C(=O)N/N=C\c2ccccn2)cn1	1	?	-0.1	0.8	-2	-2.6	10	5
CCn1c(=O)c2ccccc2n(Cc2ccccc2C)c1=O	-13	.	5.4	0.6	4	-4.5	-0.8	-3
COC(=O)c1ccccc1NC(=O)C1CCCO1 (stereo not given)	-3	10%	7.7	0.1	21	.	2.6	3
CC(=O)c1c(C)nc(-c2cccc([N+](=O)[O-])c2)n1O	-7	5%	2.7	0.1	76*	2.3	4.9	-5
COc1ccc(OC)c(NC(=S)N2CCc3ccccc3C2)c1	-10	3%	4.7	0.0	-1	-0.5	-0.4	0
CC(C)c1onc(C(=O)NCc2ccc(Cl)cc2)c1[N+](=O)[O-]	-5	7%	5.4	-0.5	55	4.1	1.1	-7
COc1ccc(-c2cc(C(=O)NCCCn3ccnc3)c3ccccc3n2)c(OC)c1	-1	.	0.4	0.2	0	5.1	-3.8	-1
CSCCC(NC(=O)c1ccccc1)C(=O)NC1CC1 (stereo not given)	-8	2%	-2.0	-0.9	-4	.	?	3
O=C(CSCc1ccc(Cl)cc1Cl)Nc1ccccc1C(=O)Nc1ccc(C(=O)O)cc1	31	.	0.6	0.1	5	-0.2	2.2	-11
NS(=O)(=O)c1ccc(NC(=O)CN2CCCN(S(=O)(=O)c3ccc(F)cc3)CC2)cc1	-34	0%	-8.5	0.0	1	-1.6	5.8	4
Nc1nnn(CC(=O)N/N=C/c2cccc3ccccc23)n1	-26	.	2.6	0.8	19	.	-1.3	-2
O=C(C1CCC(=O)N(C2CC2)C1)N1CCN(c2ccc(Cl)cc2)CC1 (stereo not given)	-7	2%	-3.0	1.0	18	-0.8	2.0	1
COc1cccc(C(=O)Nc2cc3c4c(c2)CC(=O)N4CCC3)c1	-2	-6%	2.1	0.5	3	-2.4	0.7	-4
NC(=O)C1(N2CCCCC2)CCN(C(=O)NC23CC4CC(CC(C4)C2)C3)CC1	-22	6%	-1.2	0.2	2	.	-0.5	.
COC(=O)/C(NC(C)=O)=C(\C)c1ccc(Cl)cc1	-8	6%	-3.4	0.4	-1	.	4.8	-18
CCCN1Cc2cccc(C(=O)NC(CC(=O)OCC)c3ccc(C)cc3)c2C1=O (stereo not given)	27	.	-0.1	0.1	26	-3.6	-1.3	-3
CC(NC(=O)c1ccc(OC2CCN(S(=O)(=O)N(C)C)CC2)cc1)C1CC1 (stereo not given)	2	7%	1.7	1.1	15	1.1	8.2	4
CC[N+](C)(C)c1cccc(O)c1	-10	-1%	20*!	-0.7	.	-5.5	1.4	-3
Cn1c(N)c(C(=O)COC(=O)CC2CC3CCC2C3)c(=O)n(C)c1=O (stereo not given)	-16	-11%	-10	1.6	8	0.3	-3.2	-5

(cont.)
SMILES	T cruzi repl	Vif A3G	LANA-H2A inh	Bfl-1 A1 inh	Calb FLC	MLL AF4-AF9 inh	RanGTP-Impb inh	Beta apoptosis
Cc1ccc(S(=O)(=O)CC(N)=O)cc1	-10	2%	-2.3	0.4	4	-42	2.5	0
O=C1COc2ccc(C(=O)CSc3nc4ccccc4c(=O)n3-c3ccc(Cl)c(Cl)c3)cc2N1	-14	16%	-4.3	-0.4	-12	-2.1	-0.3	69
CC1(c2nnc(Cc3ccccc3)o2)CC(c2ccc(Cl)cc2)=NO1 (stereo not given)	-5	.	-2.0	0.4	1	-7.3	?	-6
COc1ccc(C(=O)CNc2ccccc2CO)cc1	8	1%	2.3	-11	-11	-1.5	-2.2	-7
Cc1ccc(NC(=O)Cn2ccc([N+](=O)[O-])n2)cc1C	3	13%	-0.9	0.1	-6	-0.1	-0.2	-6
CCNc1cc(N2CCCC2)ccc1[N+](=O)[O-]	-2	-13%	1.4	0.1	15	.	-2.5	2
COc1ccc(CNS(=O)(=O)c2cc(Br)cc3c2N(C(C)=O)C(C)C3)cc1 (stereo not given)	-3	89%	0.4	0.6	4	-4.9	2.3	-11
Cc1ccc2nc(N3CCOCC3)c(C=O)cc2c1	6	.	-5.8	0.0	24	-2.9	-0.3	-4
COC(=O)c1cc(O)c(O)c(O)c1	4	17%	8.1	-1.3	21	.	5.1	-3
O=C(CN1CCOCC1)Nc1nc2ccc(Cl)cc2s1	-2	.	-3.0	-0.7	7	-0.6	1.8	3
Cc1ccc(NC(=O)C2Cc3ccccc3O/C2=N\O)cc1C (stereo not given)	-7	-3%	0.6	-0.8	-3	-0.7	1.3	0
C=C(C)Cn1c(SCC(=O)NCc2ccco2)nc2sc3c(c2c1=O)CCC3	5	9%	-2.6	-0.1	6	.	0.6	12
COc1ccc(C(=O)c2cc([N+](=O)[O-])ccc2N2CCOCC2)cc1	15	.	3.3	1.0	-8	13	1.3	13
N#C/C(=C/c1ccc(N2CCCCCC2)o1)c1cccc(F)c1	66*	25µM*	-3.2	1.8	4	.	?	10
Cc1c(N(C(=O)c2ccccn2)C2(C(=O)NC3CCCCC3)CCCCC2)c(=O)n(-c2ccccc2)n1C	-9	.	-2.3	-0.6	-1	-0.3	0.3	-9
COc1ccc2c(c1)CCC/C2=N\Nc1nc(C(=O)NN)cs1	-8	.	-0.1	0.0	-5	0.7	-1.3	.
Cn1cnnc1SCc1ccc(C(=O)N=Nc2c(O)n(Cc3ccc(Cl)cc3)c3ccccc23)cc1	?	0%	.	0.0	-4	.	-2.0	9
Cc1cc(C)c(C#N)c(N2CCN(c3ccccc3F)CC2)n1	-2	.	2.1	-0.3	-18	-2.2	0.3	1
COc1ccc(-c2nc(CS(=O)CC(=O)NC3CCCc4ccccc43)c(C)o2)cc1OC (stereo not given)	10	72%	-4.8	-0.9	-5	-18	-5.2	-2
S=c1ccc2ccccc2[nH]1	-12	-16%	-2.4	-0.5	11	-4.4	1.2	-4
COc1ccc(C(=O)OCC[N+]2(C)CCCCC2)cc1	-20	24%	1.5	-0.5	-23	-1.2	2.5	-3
COc1ccc(CCNC(=O)c2c(C)nc3ccccn23)cc1	4	-5%	3.5	0.0	9	-0.1	1.5	-4
CC(CCc1ccccc1)NC(=S)NC(=O)c1ccco1 (stereo not given)	-19	2%	-0.4	-0.2	-12	-9.9	-3.7	-2
Cc1cccc(/C=N/NC(=O)c2ccc(NC(=O)c3ccc(F)cc3)cc2)n1	5	.	-0.4	-0.4	-10	4.7	-4.5	5
Cc1ccc(S(=O)(=O)NC2CCCCC2)c(C)c1NS(C)(=O)=O	-13	0%	6.6	1.9	10	-3.6	?	0

The results go on.
SMILES	T cruzi repl	Vif A3G	LANA-H2A inh	Bfl-1 A1 inh	Calb FLC	MLL AF4-AF9 inh	RanGTP-Impb inh	Beta apoptosis
CN1CCN(S(=O)(=O)c2ccc(NC(=O)c3ccc([N+](=O)[O-])cc3)cc2)CC1	2	.	0.5	0.8	9	1.0	5.0	.
CCOC(=O)/C(C#N)=C/C1=C(N2CCOCC2)C(C)(C)OCC1	-9	8%	-4.2	0.2	-1	-0.4	4.5	-4
Cc1cc(=O)oc(C)c1C(=O)NNC(=O)C1(C)CC1Br (stereo not given)	0	-1%	-7.8	-0.1	1	0.1	-2.6	-1
CCN(CC(=O)Nc1c(F)cccc1F)C(=O)CN1C(=O)NC2(CCCC2)C1=O	4	10%	1.7	-0.1	1	-28	-0.6	0
COc1ccccc1C(=O)NC(=S)Nc1cc(C(=O)O)ccc1C	4	1%	-7.0	-0.1	62	-1.9	1.0	.
CC(=O)Nc1ccc(S(=O)(=O)Nc2nc3ccccc3nc2Sc2nncn2C)cc1	-13	22%&-8%	1.8	0.2	-2	.	36*	-7
Cc1ccc(NC(=O)CN2CCc3ccccc3C2)cc1S(=O)(=O)N1CCOCC1	-5	7%	1.4	-0.5	4	.	-3.4	.
COc1ccc(Cl)cc1NC(=S)NN1CCOCC1	-13	-8%	-4.8	0.7	-3	-0.4	-3.1	-7
Cc1ccc(CN(C(=O)c2cc3ccccc3oc2=O)C2CCS(=O)(=O)C2)cc1 (stereo not given)	-5	18%	-5.3	0.9	12	.	-2.0	-4
COc1ccccc1NC(=O)CN1CCN(Cc2ccccc2)CC1	20	3%	0.1	0.0	-4	.	-0.8	-3
Cc1cccc(C(=O)NNC(=O)c2csc(N3CCOCC3)n2)c1C	4	-3%	-0.2	2.4	-4	-9.6	.	-5
CCn1nc(C(=O)N[C@@H](CCSC)c2nc3ccccc3[nH]2)c2ccccc2c1=O	0	3%	-2.0	-0.8	-4	.	-0.2	11
CCCCC(=O)NC(Nc1ccc(C)cn1)(C(=O)OCC)C(F)(F)F (stereo not given)	4	-1%	3.1	1.3	3	.	0.7	-1
COc1ccc(C(c2nnnn2C2CCCCC2)N2CCN(c3ccccc3F)CC2)cc1 (stereo not given)	4	5%&0%	0.3	0.7	5	.	1.0	38
COc1cc2c(cc1OC)C(C)N(C(=O)CCNC(=O)c1ccccc1)CC2 (stereo not given)	5	.	7.8	0.9	-1	-2.6	4.3	.
c1ccc(C2c3c(ccc4ccccc34)Oc3ncn4nc(-c5ccco5)nc4c32)cc1 (stereo not given)	23	.	3.7	0.3	-13	.	-3.2	-13
CSc1ccc(CN(C)C(=O)CSCC(=O)Nc2cc(C)on2)cc1	-2	2%	2.6	1.2	4	8.2	-5.0	-3
CCOc1ccc(NC(=O)CS(=O)CC(=O)NC2CCCc3ccccc32)cc1 (stereo not given)	1	-7%	-3.4	-0.4	?	.	0.3	-6
CC1=NNC(=O)C1CCC(=O)N/N=C\c1cccc(Cl)c1 (stereo not given)	-14	12%	-1.0	0.1	-5	-1.7	6.0	-13
O=C(O)C1C2C=CC(C2)C1C(=O)Nc1ccc(Cl)c(Cl)c1 (stereo not given)	-1	3%	0.1	1.0	14	-4.7	2.1	-2
CCOC(=O)c1ccc(NC(=O)COc2ccc(S(=O)(=O)NC(C)CC)cc2)cc1 (stereo not given)	-10	3%	1.1	-0.7	-3	.	8.0	-5
COc1ccc(N(C(=O)c2ccco2)C(C(=O)NC2CCCC2)c2ccc(OC)c(OC)c2)cc1 (stereo not given)	-8	-7%	-11	0.5	1	-1.0	6.4	-6
O=C(Cn1nnc(-c2ccccc2F)n1)Nc1ccc(C(=O)N2CCOCC2)cc1	-3	?	3.4	0.8	0	.	1.5	-5
